Myc binder – binders of human c-Myc; P01106; small molecule microarray, His-c-Myc binding, anti-His fluorescence; calls only; 1.5% of 17,000 active; AID 624141;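 active = spot fluorescence over background with P-value below 7% in all four replicate spots, showing protein binding; compounds were printed on slides so no solution concentration is given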;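 note: score is binary with 100 for all four spots passing and 0 otherwise; about 2 pmol printed per array spot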
Target sequence (P01106 whole entry, looked up): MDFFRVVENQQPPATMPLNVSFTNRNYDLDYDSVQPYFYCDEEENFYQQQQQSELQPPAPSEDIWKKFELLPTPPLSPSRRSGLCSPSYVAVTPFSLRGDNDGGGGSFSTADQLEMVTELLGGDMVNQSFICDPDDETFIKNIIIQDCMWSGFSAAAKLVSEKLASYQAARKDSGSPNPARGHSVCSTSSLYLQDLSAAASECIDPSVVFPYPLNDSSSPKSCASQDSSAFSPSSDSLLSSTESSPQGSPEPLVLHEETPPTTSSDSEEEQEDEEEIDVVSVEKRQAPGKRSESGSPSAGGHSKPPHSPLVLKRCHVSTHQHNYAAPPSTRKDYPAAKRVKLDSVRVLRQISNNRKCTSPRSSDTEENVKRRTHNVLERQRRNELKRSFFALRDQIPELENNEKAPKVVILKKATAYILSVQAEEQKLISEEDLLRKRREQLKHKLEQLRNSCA
p53 mut binder – mutant p53 (human) binding | small molecule microarray binding, anti-GST fluorescence | calls only | 0.4% of 17,000 active;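 active = compounds whose four printed spots each glow above background more than chance allows, each with a p-value under 7%; compounds were printed on slides so no solution concentration is given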;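 note: about 2 pmol printed per array spot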
STAT3 SMM – STAT3 (human) binding | 0.2% of 17,000 active | P40763 | calls only | Small molecule microarray, His-STAT3 binding, anti-His fluorescence;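 active = compounds whose four printed spots each show fluorescence over background unusually high for their array block, chance value under 7%; compounds were printed on slides so no solution concentration is given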;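 note: about 2 pmol printed per array spot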
ID4 SMM – binds human ID4 protein on microarray. P47928. small molecule microarray, Flag-ID4 binding, fluorescence F/B. calls only. 1.2% of 31,000 active;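 active = spot signal over background at p below 0.07 in all four prints; compounds were printed on slides so no solution concentration is given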;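 note: a binder raises fluorescence above local background on the spot; about 2 pmol printed per array spot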
Target sequence (P47928 whole entry, looked up): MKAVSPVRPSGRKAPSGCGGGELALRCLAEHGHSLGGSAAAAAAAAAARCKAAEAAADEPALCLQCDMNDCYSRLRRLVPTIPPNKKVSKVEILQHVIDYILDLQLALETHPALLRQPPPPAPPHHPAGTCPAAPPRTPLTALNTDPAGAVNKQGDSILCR
Calls only; i = inactive; · = no result given; + = active, no number. Only part of the results is shown; count on the stated rates, not on these rows.

No.	SMILES	Myc binder	p53 mut binder	STAT3 SMM	ID4 SMM
1	C[C@H](CO)N1C[C@H](C)[C@H](CN(C)S(=O)(=O)c2cccs2)OCCCC[C@H](C)Oc2ccc(N(C)C)cc2C1=O	i	i	i	i
2	C[C@@H]1CN([C@@H](C)CO)C(=O)CCCn2nncc2CO[C@H]1CN(C)S(=O)(=O)c1ccc2ccccc2c1	i	i	i	i
3	CC(C)NC(=O)Nc1ccc2c(c1)C(=O)N([C@@H](C)CO)C[C@H](C)[C@H](CN(C)C(=O)CCC(F)(F)F)OCCCC[C@@H](C)O2	i	i	i	i
4	C[C@@H]1CN([C@@H](C)CO)C(=O)c2cccc(NS(=O)(=O)c3cccs3)c2O[C@@H]1CN(C)Cc1ccc(Cl)c(Cl)c1	i	i	i	i
5	COC(=O)CSc1nnc(-c2ccc(Cl)cc2)n1-c1ccc(Br)cc1	i	i	i	i
6	CCCN(C)C[C@H]1OCCCC[C@@H](C)Oc2ccc(N(C)C)cc2C(=O)N([C@H](C)CO)C[C@H]1C	i	i	i	·
7	Cc1noc(C)c1S(=O)(=O)Nc1ccc2c(c1)C(=O)N([C@@H](C)CO)C[C@H](C)[C@@H](CN(C)C(=O)CCC(F)(F)F)OCCCC[C@H](C)O2	i	i	i	i
8	C[C@H]1CN([C@@H](C)CO)C(=O)c2cccc(NC(=O)c3ccc(-c4nccs4)cc3)c2O[C@@H]1CN(C)Cc1ccc(Oc2ccccc2)cc1	i	i	i	·
9	C[C@@H]1CN([C@H](C)CO)C(=O)c2cccc(NC(=O)c3ccncc3)c2O[C@H]1CN(C)C	i	i	i	i
10	C[C@@H]1CN([C@@H](C)CO)C(=O)Cc2cc(NC(=O)c3ccncc3)ccc2O[C@@H]1CN(C)C(=O)Nc1ccccc1	i	i	i	i
11	C[C@@H]1CCCCO[C@H](CN(C)Cc2ccncc2)[C@@H](C)CN([C@@H](C)CO)C(=O)c2cc(NC(=O)c3ccncc3)ccc2O1	i	i	i	i
12	C[C@@H]1CN([C@@H](C)CO)C(=O)c2cc(NC(=O)Nc3ccc4c(c3)OCO4)ccc2O[C@@H](C)CCCCO[C@H]1CN(C)Cc1ccncc1	i	i	i	·
13	C[C@@H]1CN([C@H](C)CO)C(=O)c2cc(NS(=O)(=O)c3cn(C)cn3)ccc2O[C@@H](C)CCCCO[C@@H]1CN(C)C	i	i	i	i
14	CC(C)CNC(=O)C(=O)NCc1ccccn1	i	i	i	i
15	C[C@H]1CN([C@@H](C)CO)C(=O)c2cccc(NC(=O)Nc3cccc4ccccc34)c2O[C@H]1CN(C)C(=O)Nc1ccc(C(F)(F)F)cc1	i	i	i	i
16	COc1ccc(Cl)cc1NC(=O)COc1ccccc1OC	i	i	i	i
17	O=C(COc1ccccc1)Nc1ccc2nn(-c3ccc(Cl)cc3)nc2c1	i	i	i	i
18	COc1ccccc1Nc1nc(N)nc(CSc2ncccn2)n1	i	i	i	i
19	Cc1noc(C)c1S(=O)(=O)Nc1ccc2c(c1)C(=O)N([C@H](C)CO)C[C@@H](C)[C@@H](CN(C)C(=O)Nc1ccccc1)OCCCC[C@@H](C)O2	i	i	i	i
20	Cc1noc(C)c1NC(=O)N(C)C[C@@H]1OCCCC[C@@H](C)Oc2ccc(N(C)C)cc2C(=O)N([C@H](C)CO)C[C@H]1C	i	i	i	i
21	C[C@H](NCCc1ccc(O)cc1)[C@H](O)c1ccc(O)cc1	i	i	i	i
22	CC(C)NC(=O)Nc1ccc2c(c1)C(=O)N([C@H](C)CO)C[C@@H](C)[C@@H](CN(C)S(=O)(=O)c1ccccc1)OCCCC[C@H](C)O2	i	i	i	i
23	Cc1noc(C)c1NC(=O)Nc1ccc2c(c1)CC(=O)N([C@@H](C)CO)C[C@H](C)[C@@H](CN(C)C(=O)Nc1ccc3c(c1)OCO3)O2	i	i	i	·
24	CC(C)NC(=O)N(C)C[C@H]1OCCCC[C@@H](C)Oc2ccc(NC(=O)CCCN(C)C)cc2C(=O)N([C@@H](C)CO)C[C@H]1C	i	i	i	i
25	O=C(CNS(=O)(=O)c1ccccc1)Nc1cccc([N+](=O)[O-])c1	i	i	i	i
26	COc1ccc(NC(=O)c2ccccc2OCC(=O)Nc2cccc(C)c2C)c(C)c1	i	i	i	i
27	C[C@@H]1CN([C@@H](C)CO)C(=O)Cc2cc(NC(=O)Nc3ccc4c(c3)OCO4)ccc2O[C@H]1CN(C)C(=O)Nc1ccc(F)cc1	i	i	i	·
28	O=C(O)CCNC(=O)c1cncc(Br)c1	+	i	i	i
29	C[C@H](CO)N1C[C@H](C)[C@H](CN(C)S(=O)(=O)c2ccc(F)cc2)Oc2ncc(-c3ccc(F)cc3)cc2C1=O	i	i	i	i
30	C[C@@H]1CN([C@@H](C)CO)C(=O)c2cc(NC(=O)NC3CCCCC3)ccc2O[C@H]1CN(C)C(=O)Nc1ccccc1	i	i	i	i
31	COCC(=O)O[C@]1(CCN(C)CCCc2nc3ccccc3[nH]2)CCc2cc(F)ccc2[C@@H]1C(C)C	i	i	i	i
32	COc1ccc(C#Cc2ccc3c(c2)[C@]2(C(=O)N3)[C@H](C(=O)NC[C@H](O)c3ccccc3)[C@H]3C(=O)O[C@H](c4ccccc4)[C@H](c4ccccc4)N3[C@@H]2c2ccc(OCCO)cc2)cc1	i	i	i	i
33	Cc1noc(C)c1S(=O)(=O)Nc1ccc2c(c1)C(=O)N([C@@H](C)CO)C[C@@H](C)[C@@H](CN(C)S(=O)(=O)c1c(C)noc1C)O2	i	i	i	·
34	C[C@@H]1CN([C@@H](C)CO)C(=O)c2cccc(N(C)C)c2O[C@H]1CN(C)S(=O)(=O)c1ccccc1	i	i	i	i
35	C[C@@H]1CCC2C(C)(C)[C@H](O)CC[C@]2(C)[C@@]12Cc1c(O)cc3c(c1O2)CNC3=O (some centres not stated)	i	i	i	·
36	Cc1cnn(CCCNC(=O)NC23CC4CC(CC(C4)C2)C3)c1	i	i	i	i
37	Nc1nc2ccc(Cl)cc2c2nc(-c3ccco3)nn12	i	i	i	i
38	O=C(Oc1cc(OC(=O)c2ccccc2)c2c(c1)O[C@H](c1ccc(OC(=O)c3ccccc3)c(OC(=O)c3ccccc3)c1)[C@@H](OC(=O)c1ccccc1)C2)c1ccccc1	i	i	i	i
39	CCC(=O)NC(c1cccc([N+](=O)[O-])c1)c1c(O)ccc2ccccc12 (configuration not stated)	i	i	i	i
40	Cc1sc2nc(SCC(=O)c3cccs3)n(Cc3ccco3)c(=O)c2c1C	i	i	i	i
41	CC(O)Cn1cnc2c1c(=O)n(C)c(=O)n2C (configuration not stated)	i	i	i	i
42	C[C@@H]1CCCCO[C@H](CN(C)C(=O)CCC(F)(F)F)[C@@H](C)CN([C@H](C)CO)C(=O)c2cc(N(C)C)ccc2O1	i	i	i	i
43	Cc1noc(C)c1NC(=O)N(C)C[C@@H]1Oc2ncc(C#CCN(C)C)cc2C(=O)N([C@H](C)CO)C[C@@H]1C	i	i	i	i
44	Cc1noc(C)c1S(=O)(=O)Nc1ccc2c(c1)CC(=O)N([C@H](C)CO)C[C@@H](C)[C@H](CN(C)C(=O)Nc1ccccc1)O2	i	i	i	i
45	C[C@H](CO)N1C[C@H](C)[C@H](CN(C)C(=O)CCC(F)(F)F)OCCCC[C@H](C)Oc2ccc(NS(C)(=O)=O)cc2C1=O	+	i	+	i
46	Nc1ccc(-c2nc3ccc(-c4nc5ccc(N)cc5[nH]4)cc3[nH]2)cc1	i	i	i	i
47	C[C@@H]1CCCCO[C@@H](CN(C)S(=O)(=O)c2cn(C)cn2)[C@H](C)CN([C@@H](C)CO)C(=O)c2cc(NC(=O)c3ccccc3)ccc2O1	i	i	i	i
48	Cc1ccc(S(=O)(=O)N2CCN(C(=O)CSc3nnc4sc5ccccc5n34)CC2)cc1	i	i	i	i
49	COc1ccc(CN(C)C[C@@H]2Oc3ccc(NC(=O)c4ccncc4)cc3CC(=O)N([C@H](C)CO)C[C@@H]2C)cc1	i	i	i	i
50	C[C@@H]1CN([C@@H](C)CO)C(=O)c2cccc(NC(=O)c3ccncc3)c2O[C@H]1CN(C)S(=O)(=O)c1cn(C)cn1	i	i	i	i
51	CCCN(C)C[C@H]1OCCCC[C@@H](C)Oc2ccc(NS(=O)(=O)c3ccccc3)cc2C(=O)N([C@H](C)CO)C[C@H]1C	i	i	i	·
52	C[C@@H]1CN([C@H](C)CO)C(=O)CCCn2cc(nn2)CO[C@H]1CN(C)C(=O)Nc1ccc(N2CCCCC2)cc1	i	i	i	i
53	C=CCc1ccc(O[C@@H]2O[C@H](CO[C@@H]3O[C@@H](C)[C@H](O)[C@@H](O)[C@H]3O)[C@@H](O)[C@H](O)[C@H]2O)c(O)c1	i	i	i	i
54	C[C@@H]1CN([C@H](C)CO)C(=O)c2cc(NC(=O)Nc3ccccc3)ccc2O[C@@H](C)CCCCO[C@H]1CN(C)C(=O)Cc1ccccc1	i	i	i	i
55	C[C@H]1CN([C@@H](C)CO)C(=O)c2cc(NC(=O)Nc3ccccc3)ccc2O[C@@H]1CN(C)Cc1ccncc1	i	i	i	i
56	Cc1noc(C)c1NC(=O)Nc1cccc2c1O[C@@H](CN(C)Cc1ccc3c(c1)OCO3)[C@H](C)CN([C@@H](C)CO)C2=O	i	i	i	i
57	CCCN(CCc1ccccc1)C1CCc2c(O)cccc2C1 (configuration not stated)	i	i	i	i
58	COc1ccc(F)cc1S(=O)(=O)N1CCCN(S(=O)(=O)c2cc(F)ccc2OC)CC1	i	i	i	i
59	C[C@H]1CN([C@@H](C)CO)C(=O)c2cccc(NS(=O)(=O)c3cn(C)cn3)c2O[C@H]1CN(C)Cc1ccc(C(F)(F)F)cc1	i	i	i	i
60	CCCNC(=O)[C@@H]1c2ccccc2C(=O)N(CC23CC4CC(CC(C4)C2)C3)[C@H]1c1ccc(CO)cc1	i	i	i	i

Other structures.
No.	SMILES	Myc binder	p53 mut binder	STAT3 SMM	ID4 SMM
61	CC(C)NC(=O)Nc1ccc2c(c1)C(=O)N([C@@H](C)CO)C[C@H](C)[C@H](CN(C)S(=O)(=O)c1ccccc1)OCCCC[C@@H](C)O2	i	i	i	i
62	C[C@H](CO)N1C[C@H](C)[C@H](CN(C)S(=O)(=O)c2cccc(C#N)c2)OCc2cnnn2CCCC1=O	i	i	i	·
63	C[C@@H]1CN([C@H](C)CO)C(=O)CCCn2cc(nn2)CO[C@H]1CN(C)C(=O)c1cc(-c2ccccc2)on1	i	i	i	i
64	C[C@@H]1CN([C@@H](C)CO)C(=O)c2cccc(NC(=O)c3nc4ccccc4s3)c2O[C@H]1CN(C)Cc1ccncc1	i	i	i	i
65	COc1ccc(S(=O)(=O)N(C)CC(=O)O)cc1	+	i	i	i
66	CC(C)NC(=O)Nc1ccc2c(c1)C(=O)N([C@H](C)CO)C[C@H](C)[C@H](CN(C)C)OCCCC[C@H](C)O2	i	i	i	i
67	C[C@H]1CN([C@@H](C)CO)C(=O)CCCn2cc(nn2)CO[C@@H]1CN(C)C(=O)CCC(F)(F)F	i	i	i	i
68	CC(C)NC(=O)Nc1ccc2c(c1)CC(=O)N([C@@H](C)CO)C[C@H](C)[C@@H](CN(C)Cc1ccc(-c3ccccc3)cc1)O2	i	i	i	i
69	Cc1cccc(Nc2ncnc(N)c2[N+](=O)[O-])n1	i	i	i	i
70	CNC[C@@H]1OCCCC[C@H](C)Oc2ccc(NC(=O)Nc3ccc4c(c3)OCO4)cc2C(=O)N([C@H](C)CO)C[C@@H]1C	i	i	i	i
71	C[C@@H]1CCCCO[C@@H](CN(C)C(=O)c2ccccc2)[C@H](C)CN([C@@H](C)CO)C(=O)c2cc(N(C)C)ccc2O1	i	i	i	·
72	C/C=C/C1=CC(=O)[C@H](O)[C@H]1O	i	i	i	·
73	OC[C@@H]1[C@H]2c3ccccc3OC1(CO)N=C1SCCCN12	i	i	i	i
74	Cc1nnc(SCC(=O)NC2CC2)n1-c1ccccc1	i	i	i	i
75	C/C=C/c1ccc(OCCSc2nc(C)cc(=O)[nH]2)c(OC)c1	i	i	i	i
76	C[C@H]1CN([C@@H](C)CO)C(=O)Cc2cc(NC(=O)Cc3cn(C)c4ccccc34)ccc2O[C@@H]1CN(C)CC1CC1	i	i	i	i
77	Cc1noc(C)c1S(=O)(=O)Nc1ccc2c(c1)C(=O)N([C@@H](C)CO)C[C@@H](C)[C@H](CN(C)C(=O)C1CCCCC1)OCCCC[C@@H](C)O2	i	i	i	·

Reformatted with values under each structure: part of the list above
Each structure is followed by: Myc binder, p53 mut binder, STAT3 SMM, ID4 SMM
(72) C/C=C/C1=CC(=O)[C@H](O)[C@H]1O
→ i, i, i, ·
(73) OC[C@@H]1[C@H]2c3ccccc3OC1(CO)N=C1SCCCN12
→ i, i, i, i
(74) Cc1nnc(SCC(=O)NC2CC2)n1-c1ccccc1
→ i, i, i, i
(75) C/C=C/c1ccc(OCCSc2nc(C)cc(=O)[nH]2)c(OC)c1
→ i, i, i, i
(76) C[C@H]1CN([C@@H](C)CO)C(=O)Cc2cc(NC(=O)Cc3cn(C)c4ccccc34)ccc2O[C@@H]1CN(C)CC1CC1
→ i, i, i, i
(77) Cc1noc(C)c1S(=O)(=O)Nc1ccc2c(c1)C(=O)N([C@@H](C)CO)C[C@@H](C)[C@H](CN(C)C(=O)C1CCCCC1)OCCCC[C@@H](C)O2
→ i, i, i, ·
